CtBP-E1A blk: CtBP/E1A binding inhibition. AlphaScreen GST-E1A/His-CtBP binding, 1536-well; hits give low values; control for the full effect not named in the record. activity change, % (concentration not given with the values). 0.49% of 340,000 active; in the data active means activity change below about -65%; inconclusive means about -30% to -65%; inactive means above about -30%; note: % is set by controls: 0 for no effect and ±100 for the full control effect
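Protein mix (5X: 125 nM each GST-E1A, His-CtBP) was incubated with pinned compound 2 h at 37 deg C in dark, in 50 mM Tris pH 8.0 buffer with 300 mM NaCl. Glutathione donor and nickel acceptor beads followed; AlphaScreen signal read after 1 h.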
PINK1 expr mod: PINK1 expression modulation | PINK1 immunofluorescence, high-content cytometry, 24 h | Potency, µM (titrated, usually from 76.6 µM), for the others: at the top dose activation (PINK1 increase), actives largely listed as activators | 0.2% of 410,000 active | AID 624263; active = well fitted activation curve with a large enough effect; inconclusive = small, poorly fitted or top-dose-only effect; inactive = flat fitted curve, though single readings scatter; cell line not stated here;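 note: potency is the fitted concentration of half-maximal effect; % of control where 0% means no effect; nearly all actives have a fitted effect of over 65% in size; a mitochondrial uncoupler was the plate control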
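PINK1 protein, normally rapidly degraded, was detected by immunofluorescence after 24 hour compound treatment of a stable cell line. Titration data (5 concentrations) came from laser-scanning cytometry, with CCCP-treated wells as controls.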
D2 agonist: agonists of human D2 dopamine receptor (beta-arrestin). P14416. DiscoveRx PathHunter D2 beta-arrestin, luminescence, 90 min; 100% = 57 uM dopamine signal. activation, % (concentration not given with the values). 0.084% of 360,000 active. AID 624465; in the data active = activation above about 40%; inconclusive = about 15% to 40%; inactive = below about 15%; note: compound concentration not given in the record; the text of the record calls up to 30% inactive
Target sequence (P14416 whole entry, looked up): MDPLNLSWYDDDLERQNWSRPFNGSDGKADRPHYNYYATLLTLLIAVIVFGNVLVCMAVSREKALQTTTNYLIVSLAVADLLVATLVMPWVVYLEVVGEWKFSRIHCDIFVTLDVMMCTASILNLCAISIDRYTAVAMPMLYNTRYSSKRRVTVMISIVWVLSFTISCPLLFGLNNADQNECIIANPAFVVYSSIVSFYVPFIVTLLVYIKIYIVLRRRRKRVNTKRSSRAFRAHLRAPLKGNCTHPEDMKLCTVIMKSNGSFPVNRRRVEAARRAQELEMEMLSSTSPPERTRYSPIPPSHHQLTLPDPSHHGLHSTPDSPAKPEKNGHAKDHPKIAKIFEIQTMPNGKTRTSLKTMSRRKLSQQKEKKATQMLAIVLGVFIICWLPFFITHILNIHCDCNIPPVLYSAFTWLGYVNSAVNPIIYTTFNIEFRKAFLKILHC
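DiscoveRx PathHunter D2 beta-arrestin cells (2,100/well) attached overnight, then compound-stimulated 90 min at 37 C in HBSS/10 mM HEPES/0.1% Tween-20 buffer; beta-galactosidase complementation read by luminescence after 1 h at ambient temperature. Dopamine 57 uM final (EC100) as control.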
Six1-Eya2 blk: blocks human Six1 binding to Eya2; activity change, % (no concentration beside the values); Q15475+O00167; AID 651725; 0.56% of 360,000 active; AlphaScreen GST-Six1/His-Eya2 binding, biochemical; hits give low values; control for the full effect not named in the record; in the data active = activity change below about -65%; inconclusive = about -30% to -65%; inactive = above about -30%; note: % is set by controls: 0 for no effect and ±100 for the full control effect; compound concentration not given in the record
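Homogeneous AlphaScreen proximity assay pairing GST-Six1 with His-tagged Eya2 (added as 5X mix: 250 nM and 500 nM) in 50 mM Tris pH 8.0, 300 mM NaCl, 1 mM TCEP. Glutathione donor and nickel acceptor beads; 1 h, 37 °C, dark.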
D2 PAM: positive allosteric modulators of human D2 dopamine receptor | potentiation, % (test concentration not listed) | 0.23% of 360,000 active | DiscoveRx D2 beta-arrestin cells, luminescence, 90 min; 100% = 57 uM dopamine signal; active = potentiation of 50% or more; inconclusive = 30% to 50%; inactive = 30% or less;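 note: compound concentration not given in the record; tested on top of an EC20 dose of dopamine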
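PathHunter D2 cells, attached overnight at 37 deg C, received compound in DMSO plus dopamine at EC20 (50 nM final) for 90 min at 37 deg C. Beta-arrestin recruitment was read as luminescence after 1 h with detection reagent at ambient temperature.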
TRPML1 agonist: activates the human TRPML1 channel | AID 624414 | activation, % (no concentration beside the values) | TRPML1-expressing cells, Ca2+ dye fluorescence, FDSS; host cell line not named in the record; reference of the full effect not given here | 0.12% of 410,000 active | Q9GZU1; in the data active = activation above about 50%; inconclusive = about 30% to 50%; inactive = below about 30%; note: 0% is about no effect; the text of the record puts the active cut at 80%
Target sequence (Q9GZU1 whole entry, looked up): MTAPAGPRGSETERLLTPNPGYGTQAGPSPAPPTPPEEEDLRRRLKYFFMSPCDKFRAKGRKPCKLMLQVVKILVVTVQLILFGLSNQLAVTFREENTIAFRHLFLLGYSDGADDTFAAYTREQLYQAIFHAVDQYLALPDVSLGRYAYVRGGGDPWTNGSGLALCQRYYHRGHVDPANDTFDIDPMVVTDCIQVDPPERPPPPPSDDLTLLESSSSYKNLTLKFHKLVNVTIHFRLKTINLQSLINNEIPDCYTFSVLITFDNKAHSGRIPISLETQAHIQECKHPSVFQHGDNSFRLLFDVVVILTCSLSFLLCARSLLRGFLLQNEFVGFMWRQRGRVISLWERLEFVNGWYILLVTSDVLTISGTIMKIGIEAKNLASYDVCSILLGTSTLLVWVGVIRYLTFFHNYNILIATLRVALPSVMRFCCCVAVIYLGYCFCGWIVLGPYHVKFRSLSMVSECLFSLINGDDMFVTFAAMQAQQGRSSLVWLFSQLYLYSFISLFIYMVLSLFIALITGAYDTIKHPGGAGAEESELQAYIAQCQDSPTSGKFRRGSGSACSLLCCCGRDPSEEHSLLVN
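Kinetic FDSS Ca2+ read in Tet-induced TRPML1-DL cells (ABD Ca8 dye plus quencher, 45-90 min RT loading): baseline, then compound, then 110 s agonist window; EC80 agonist 54-4 at 4uM final added afterwards for a 110 s antagonist window.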
* marks the source's active call; other numbers are inactive results; ? = inconclusive; / = no result given; [ ] = another dose, or the depositor's remark.

no.	compound	D2 agonist	TRPML1 agonist	D2 PAM	Six1-Eya2 blk	PINK1 expr mod	CtBP-E1A blk
1	CCn1c(CNC(=O)c2ccc(OC)cc2)nnc1SC	1.0	-0.3	-6	0	-0.2%	7
2	COc1ccc(CNC(=O)COc2ccc(S(=O)(=O)NC(C)C)cc2)cc1	-1.1	-0.1	-12	-1	/	9
3	Cc1cc(O)cc2c1C(c1ccc(F)cc1)CC1(CC(C)(C)NC(=S)N1)O2 (configuration not stated)	-3.7	-0.4	-8	-1	7.6%	-2
4	CCCCN=Cc1c(C)[nH]n(-c2ccccc2)c1=S	-9.8	4.0	-16	-15	-1.1%	-6
5	CCC(C(=O)NCc1ccco1)N(C(=O)CNS(=O)(=O)c1ccccc1)C1CCCCC1 (configuration not stated)	-1.6	-0.6	4	-2	5.6%[38.3 µM]	0
6	CCOc1ccc(NC(=O)c2cccc(-n3cnnn3)c2)cc1	-2.1	-0.8	-10	3	37%[38.3 µM]	-2
7	CCN(CC)c1ccc(/C=N/Nc2nn[nH]n2)cc1	4.1	-0.8	-2	-1	3.1%	/
8	O=C(O)C1=C(C(=O)N2CCN(C(=O)c3ccco3)CC2)CCCC1	7.6	-0.1	-8	0	?	3
9	O=C(NNC(=O)C1CCCO1)c1ccc(Cl)cc1 (configuration not stated)	0.8	0.5	-9	-1	-4.2%	8
10	COc1ccc(Cl)cc1NC(=O)c1nnn(CC(=O)Nc2ccc(C)c(C)c2)c1N	-0.3	0.3	-4	1	0.7%	1
11	CCCCCCCC[n+]1cccc(C(=O)N2c3c(nc(N)[nH]c3=O)NC(C)C2C)c1 (configuration not stated)	-0.6	0.9	-3	4	1.6%	-2
12	O=C(CN1CCN(S(=O)(=O)c2ccc(F)cc2)CC1)Nc1ccc2c(c1)OCO2	-1.5	0.8	-16	3	-0.4%	-4
13	CSCCC1NC(=O)N(CC(=O)Nc2ccc(Cl)c(S(=O)(=O)N3CCOCC3)c2)C1=O (configuration not stated)	-3.9	-0.2	-9	-16	-1.1%	-23
14	Cc1nnc2n(c1=O)C(CS(=O)(=O)c1ccc3ccccc3c1)CS2 (configuration not stated)	0.4	0.9	5	2	0.0%	-3
15	CCOC(=O)N1CCN(C(=O)CNC(=O)c2nn(-c3ccc(OC)c(OC)c3)c(=O)c3ccccc23)CC1	-14	-1.2	12	3	2.9%	-4
16	Nc1nc(NC(=O)CCC(=O)O)nn1-c1ccccc1	-1.7	-0.6	0	-5	-1.9%	-11
17	CCOC(=O)c1oc2nc(C(C)C)c3c(c2c1N)CC(C)(C)OC3	1.2	-0.4	1	-3	0.8%	0
18	Cc1ccc(S(=O)(=O)c2cc3c(=O)n4cccc(C)c4nc3n(C3CCCCC3)c2=N)cc1	-4.9	0.2	-6	7	?	5
19	CCCCN1C(=O)C(=O)N(CC(=O)Nc2cccc(C(C)=O)c2)C1=O	-3.6	0.3	-4	4	-0.7%	-6
20	O=C(NC1CCCC1)c1ccc(Cn2c(=O)[nH]c3ccsc3c2=O)cc1	1.6	/	1	-1	0.1%	5
21	O=S(=O)(Nc1cccc2cn[nH]c12)c1ccc(F)cc1	-4.1	-0.8	-28	4	4.0%	1
22	CCCC(=O)c1ccc(N2CCOCC2)c(F)c1	-0.8	-0.2	1	20	-0.6%	2
23	CSc1ccccc1NC(=O)c1onc(C)c1Cl	-6.3	0.0	-11	6	5.0%	11
24	C[C@]12C(=O)N(c3ccc(F)cc3)C(=O)N1[C@@H]1c3ccccc3OC[C@@H]1[C@H]2c1ccccc1	-1.1	1.4	-13	-2	-0.2%	0

Single records, from the list above. Screens in order: D2 agonist, TRPML1 agonist, D2 PAM, Six1-Eya2 blk, PINK1 expr mod, CtBP-E1A blk
Record of `CCOC(=O)c1oc2nc(C(C)C)c3c(c2c1N)CC(C)(C)OC3` = 1.2, -0.4, 1, -3, 0.8%, 0
Record of `O=S(=O)(Nc1cccc2cn[nH]c12)c1ccc(F)cc1` = -4.1, -0.8, -28, 4, 4.0%, 1

Going on with the list.
no.	compound	D2 agonist	TRPML1 agonist	D2 PAM	Six1-Eya2 blk	PINK1 expr mod	CtBP-E1A blk
25	Brc1ccc(C2C3=C(Nc4ncnn42)c2ccccc2OC3c2ccncc2)cc1 (configuration not stated)	-1.5	-0.1	2	-4	-32%[inhibitor][38.3 µM]	-11
26	CN(C)c1nc2c(N)ncnc2n1C1OC(CO)C(O)C1O (configuration not stated)	-1.6	-0.1	-6	5	-1.3%	7
27	COc1cc(/C=N/NC(=S)NCC2CCCO2)cc(OC)c1OC (configuration not stated)	0.4	1.0	-7	7	1.4%	-3
28	Cn1c(=O)[nH]c(=O)c2c1ncn2CCN1CCCCC1	-1.6	0.2	-9	0	-1.1%	2
29	O=C(Nc1ccncc1)c1ccc2c(c1)C(=O)N(CC1CCCO1)C2=O (configuration not stated)	-2.2	-0.6	0	-1	-1.2%	9
30	O=c1sc2ccccc2c(=O)n1Cc1ccccc1F	3.9	0.4	-4	35	5.3%	12
31	Cc1ccc(CNC(=O)Cc2cn(C)c3ccccc23)cc1	-4.2	-1.6	-1	3	1.6%	2
32	COc1ccc(-c2nnn(CC(=O)NCc3ccc4c(c3)OCO4)n2)cc1OC	3.7	0.6	-3	0	2.2%	10
33	O=C(NCC1CCCO1)Nc1ccc(Cl)cc1 (configuration not stated)	-2.7	-0.3	-7	3	-1.0%	2
34	CCOc1ccc(N(CC(=O)NCc2ccco2)S(C)(=O)=O)cc1	-1.7	2.1	-6	3	1.1%	3
35	COc1ccccc1NC(=O)CSc1nc(O)cc(=O)n1-c1ccccc1OC	-1.5	1.0	0	-3	13%[38.3 µM]	8
36	CC(C)(C)CC(=O)N1CCN(Cc2ccc3c(c2)OCO3)CC1	1.2	0.0	-18	6	0.3%	13
37	CC1(C)Cc2c(C#N)c(OCC(=O)c3ccccc3)nc(-c3ccoc3)c2CO1	0.2	0.9	-10	2	4.3%	-2
38	CC(C)(C)c1nc(SCC(=O)c2ccccc2)c2ccccc2n1	0.9	1.5	-1	26	?	6
39	Cc1c(Cl)cccc1NC(=S)N1CCC(N(C)CC2CCCO2)CC1 (configuration not stated)	-4.4	-0.2	-7	-6	0.6%	0
40	O=S(=O)(Nc1ccccc1)c1ccc(S(=O)(=O)N2CCCC2)cc1	-5.7	1.1	3	3	0.1%	1
41	COc1ccc(CCC(=O)N2CC(C)OC(C)C2)cc1 (configuration not stated)	-3.3	-0.2	-6	3	-0.7%[38.3 µM]	17
42	CCc1ccc2nc(SCC(=O)N3CCCCC3)c(C#N)cc2c1	-4.9	0.1	-10	6	0.4%	4
43	O=C(OCC(=O)N1CCCc2ccccc21)c1ccc(S(=O)(=O)C(F)F)cc1	0.7	-0.6	-20	6	1.4%	5
44	COc1cccc(NC(=O)CN(C)C(=O)/C=C/c2ccc(S(=O)(=O)N3CCCCCC3)cc2)c1	-1.7	0.6	-13	-3	4.4%	0
45	COc1ccccc1CNC(=O)c1cc2ccccc2oc1=O	-7.2	-0.7	5	0	5.4%	3
46	CCC(NC(=O)CN1CCN(C(=O)c2cccs2)CC1)c1ccc(C)cc1 (configuration not stated)	-2.5	-0.3	-1	4	-0.7%	6
47	Cn1c(C(C#N)/C(=N\S(=O)(=O)c2cccs2)c2ccccc2)nc2ccccc21 (configuration not stated)	-0.4	-0.2	3	5	1.7%[38.3 µM]	-8
48	O=C(O)CCN(Cc1ccccc1)S(=O)(=O)c1ccc(Cl)cc1F	1.7	0.5	3	8	-1.4%	0
49	CCCc1c(-c2cccc(Cl)c2)ncn1Cc1ccccc1OC	/	0.6	/	-12	?	-1
50	CCOC(=O)c1sc(NC(=O)CN(CC)CC)c(C(=O)OCC)c1C	-4.0	0.6	0	4	0.7%	9
51	O=C(OC(C(=O)NCc1ccc2c(c1)OCO2)c1ccccc1F)c1ccco1 (configuration not stated)	-2.9	0.1	-11	-1	0.3%	0
52	COc1ccc(S(=O)(=O)N(C)C[C@@H]2OCc3cnnn3CCCC(=O)N([C@H](C)CO)C[C@H]2C)cc1	-8.2	0.2	-9	35	-0.5%	-8
53	CCCC(=O)NCCc1cc2ccc(C)c(C)c2[nH]c1=O	-6.3	-0.8	-8	6	0.8%	-5
54	NC(=O)CC(NC(=O)c1cccc(Br)c1)c1ccc(N2CCC(N3CCCC3)CC2)c([N+](=O)[O-])c1 (configuration not stated)	-4.0	0.4	-4	1	2.3%	0
55	Cc1cc(C)c2c(n1)nn1c(NCCCN3CCOCC3)cc(C)nc21	-3.0	1.6	-12	0	0.9%	-2
56	Brc1ccccc1-c1nnc2sc(-c3ccc4c(c3)OCCO4)nn12	3.0	2.6	8	-4	/	16
57	COc1ccccc1-c1ocnc1C(=O)N1CCN(S(=O)(=O)c2ccc(NC(C)=O)cc2)CC1	1.3	-1.2	-7	-18	3.5%	0
58	CC(/C=N/NC(=O)c1nn(C)c(C)c1Br)=C\c1ccccc1	-1.8	-0.1	-6	0	-1.2%	-1
59	CCOC(=O)[C@]12CCC=C1N(Cc1ccccc1)C(=O)[C@H](CC(=O)NCc1cccc(C(F)(F)F)c1)C2	/	0.1	/	5	1.8%	6
60	O=C(C1COc2ccccc2O1)N1CCN(c2ccccc2O)CC1 (configuration not stated)	2.1	0.0	7	1	0.7%	0
61	Cc1nc(NS(=O)(=O)c2ccccc2)sc1C(C)(C)C	2.0	1.0	-12	7	11%	24
62	CCC(CC)C(=O)N(C)c1c(C)nc2c(OCC(=O)C(C)(C)C)cccn12	-7.0	-0.1	-4	1	1.6%	4

Copied from the list:
Reading for compound 60 under D2 agonist: 2.1
Reading for compound 58 under D2 PAM: -6
Reading for compound 62 under CtBP-E1A blk: 4
Reading for compound 59 under Six1-Eya2 blk: 5

Arranged by formula weight (ascending): 3 of the compounds above
no.	compound	D2 agonist	TRPML1 agonist	D2 PAM	Six1-Eya2 blk	PINK1 expr mod	CtBP-E1A blk
31	Cc1ccc(CNC(=O)Cc2cn(C)c3ccccc23)cc1	-4.2	-1.6	-1	3	1.6%	2
36	CC(C)(C)CC(=O)N1CCN(Cc2ccc3c(c2)OCO3)CC1	1.2	0.0	-18	6	0.3%	13
59	CCOC(=O)[C@]12CCC=C1N(Cc1ccccc1)C(=O)[C@H](CC(=O)NCc1cccc(C(F)(F)F)c1)C2	/	0.1	/	5	1.8%	6

Assay outcomes deposited in PubChem BioAssay by National Center for Advancing Translational Sciences (NCATS).

Rows were taken by chance; any-hit rate near 1.3%.
